Source: PubChem (Broad Institute)
HIV Env fusion: blocks HIV Env-driven cell-cell fusion. HeLa-JRFL Env/CEM21 cell fusion, luciferase. inhibition, % at 12.3 µM. 360,000 tested, 1.1% active;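 active = mean replicate inhibition score of at least 50 and every replicate individually at or above 50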;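 also: 0% = plate neutral controls and 100% = maraviroc near 300 nM; one replicate is shown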
Yeast UUG start: alters start codon recognition fidelity in yeast. S. cerevisiae UUG-firefly luciferase reporter, luminescence/redox ratio. activity score, % at 18.7 µM. 350,000 tested, 0.13% active;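 active = replicate mean at a twofold rise or more, about +100% in these data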;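 also: firefly luciferase made from a UUG start codon reports start codon fidelity; reporter light over untreated wells divided by growth signal over untreated wells; some hits fall short of that in this replicate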
Numbers without * were called inactive; [ ] = another dose, or the depositor's remark. This is a subset, so the mix of outcomes need not match the whole.

HIV Env fusion	Yeast UUG start	molecule
0[16.7 µM]	7	CNC[C@@H]1OCCCC[C@@H](C)Oc2ccc(NS(=O)(=O)c3ccc(C)cc3)cc2C(=O)N([C@H](C)CO)C[C@@H]1C
-58[16.7 µM]	11	C[C@@H]1CCCCO[C@H](CN(C)Cc2ccccc2)[C@H](C)CN([C@@H](C)CO)C(=O)c2cc(NC(=O)Nc3ccc(F)cc3)ccc2O1
-13[16.7 µM]	10	COc1ccc(S(=O)(=O)N(C)C[C@H]2OCCCC[C@@H](C)Oc3ccc(NS(C)(=O)=O)cc3C(=O)N([C@H](C)CO)C[C@@H]2C)cc1
-11[16.7 µM]	-13	O=C(C[C@H]1C[C@@H]2c3cc(NC(=O)Nc4ccccc4)ccc3O[C@@H]2[C@@H](CO)O1)NCc1cccnc1
-29[16.7 µM]	8	C[C@H](CO)N1C[C@H](C)[C@@H](CN(C)S(=O)(=O)c2cccs2)Oc2c(NC(=O)Nc3ccc(F)cc3)cccc2C1=O
3[16.7 µM]	2	COc1ccc(CN(C)C[C@@H]2Oc3ccc(NC(=O)Nc4ccccc4)cc3CC(=O)N([C@@H](C)CO)C[C@H]2C)cc1
1[16.7 µM]	1	C[C@H]1CCCCO[C@H](CN(C)C(=O)Nc2ccc(F)cc2)[C@@H](C)CN([C@@H](C)CO)C(=O)c2cc(NS(=O)(=O)c3cn(C)cn3)ccc2O1
11[16.7 µM]	2	COc1ccc(NC(=O)N(C)C[C@@H]2Oc3ccc(NC(=O)C4CC4)cc3CC(=O)N([C@@H](C)CO)C[C@H]2C)cc1
31[16.7 µM]	-4	C[C@H]1CN([C@@H](C)CO)S(=O)(=O)c2ccc(C#CCC3CCCC3)cc2O[C@H]1CN(C)C(=O)c1ccccn1
-11[16.7 µM]	5	CC(C)NC(=O)N(C)C[C@@H]1Oc2c(NC(=O)C3CCCCC3)cccc2C(=O)N([C@@H](C)CO)C[C@H]1C
-63[16.7 µM]	-8	C[C@@H]1CCCCO[C@H](CN(C)C(=O)c2ccccc2)[C@@H](C)CN([C@@H](C)CO)C(=O)c2cc(NS(=O)(=O)c3ccccc3)ccc2O1
-7[16.7 µM]	16	C[C@@H]1CN([C@@H](C)CO)C(=O)Cc2cc(NS(=O)(=O)c3ccccc3)ccc2O[C@H]1CN(C)S(=O)(=O)c1cn(C)cn1
0[16.7 µM]	-7	C[C@@H]1CN([C@H](C)CO)C(=O)c2cc(NS(=O)(=O)c3ccc(Cl)cc3)ccc2O[C@H]1CN(C)C(=O)Nc1cccc2ccccc12
-3[16.7 µM]	2	C[C@H](CO)N1C[C@H](C)[C@@H](CN(C)C(=O)Cc2ccccc2)OCCCC[C@H](C)Oc2ccc(NC(=O)CCC(F)(F)F)cc2C1=O
-1[16.7 µM]	-2	O=C(NCC[C@@H]1CC[C@H](NC(=O)C2CCC2)[C@H](CO)O1)c1cnccn1
3[16.7 µM]	-8	Cc1ccc(S(=O)(=O)N(C)C[C@H]2Oc3ccc(NC(=O)Nc4ccc(F)cc4)cc3CC(=O)N([C@H](C)CO)C[C@@H]2C)cc1
2[16.7 µM]	-12	O=C(C[C@H]1C=C[C@@H](NC(=O)c2ccccc2)[C@@H](CO)O1)Nc1ccc(-c2ccccc2)cc1
12[16.7 µM]	3	Cc1noc(C)c1NC(=O)N(C)C[C@H]1Oc2ccc(NC(=O)Nc3cccc4ccccc34)cc2C(=O)N([C@@H](C)CO)C[C@H]1C
8[16.7 µM]	3	C[C@@H]1CN([C@@H](C)CO)C(=O)c2cc(C#Cc3ccccc3F)cnc2O[C@H]1CN(C)C(=O)c1ccc2c(c1)OCO2
-18[16.7 µM]	8	Cc1noc(C)c1NC(=O)N(C)C[C@@H]1Oc2ccc(NC(=O)Cc3cn(C)c4ccccc34)cc2CC(=O)N([C@@H](C)CO)C[C@@H]1C
0[16.7 µM]	6	O=C(NCC[C@@H]1CC[C@H](NC(=O)C2CC2)[C@@H](CO)O1)c1ccc(F)cc1
20[16.7 µM]	-2	CC(C)NC(=O)Nc1ccc2c(c1)C(=O)N([C@@H](C)CO)C[C@@H](C)[C@@H](CN(C)C(=O)c1ccccc1)OCCCC[C@@H](C)O2
13[16.7 µM]	-2	CN(C)C(=O)C[C@@H]1CC[C@@H](NC(=O)c2ccc(F)cc2)[C@@H](CO)O1
9[16.7 µM]	-5	Cc1ccc(-c2ccc3c(c2)O[C@@H](CN(C)C(=O)Nc2ccccc2)[C@H](C)CN([C@H](C)CO)S3(=O)=O)cc1
-9[16.7 µM]	-31	CNC[C@H]1Oc2ccc(NC(=O)C3CC3)cc2C(=O)N([C@@H](C)CO)C[C@H]1C
-7[16.7 µM]	-10	CCNC(=O)C[C@H]1CC[C@@H]2[C@@H](COc3ccc(NC(=O)Nc4c(C)noc4C)cc3C(=O)N2C)O1
-36[16.7 µM]	7	N#C[C@H]1[C@@H](c2ccccc2)[C@H](CO)N1C(=O)c1cc(Cl)cc(Cl)c1
33[16.7 µM]	9	C[C@@H]1CN([C@H](C)CO)C(=O)c2cc(NC(=O)C3CCCCC3)ccc2O[C@@H](C)CCCCO[C@H]1CN(C)C(=O)Cc1ccccc1
10[16.7 µM]	1	C[C@@H]1CN([C@@H](C)CO)S(=O)(=O)c2ccc(C3=CCCCC3)cc2O[C@@H]1CN(C)C(=O)c1ccncc1
-19[16.7 µM]	-26	C[C@@H]1CCCCO[C@@H](CN(C)C(=O)C2CCCCC2)[C@@H](C)CN([C@@H](C)CO)C(=O)c2cc(NC(=O)Nc3ccc(F)cc3)ccc2O1
14[16.7 µM]	7	C[C@@H]1CCCCO[C@H](CN(C)CC2CCCCC2)[C@H](C)CN([C@@H](C)CO)C(=O)c2cc(NC(=O)Nc3ccc4c(c3)OCO4)ccc2O1
12[16.7 µM]	4	C[C@@H]1CCCCO[C@H](CN(C)S(=O)(=O)c2ccc(F)cc2)[C@H](C)CN([C@H](C)CO)C(=O)c2cc(NC(=O)NC3CCCCC3)ccc2O1
26[16.7 µM]	-1	Cc1ccc(S(=O)(=O)N[C@H]2C=C[C@H](CC(=O)N3CCN(c4ccccc4)CC3)O[C@@H]2CO)cc1
-15[16.7 µM]	-12	COc1ccc(C(=O)Nc2ccc3c(c2)OC[C@H](C)NC[C@H](C)[C@H](OC)CN(C)C3=O)cc1
-5[16.7 µM]	9	C[C@@H]1CCCCO[C@@H](CN(C)Cc2ccncc2)[C@@H](C)CN([C@@H](C)CO)C(=O)c2cc(NC(=O)Nc3ccc(F)cc3)ccc2O1
-23[16.7 µM]	28	C[C@H]1CCCCO[C@@H](CN(C)C(=O)c2ccccc2)[C@@H](C)CN([C@@H](C)CO)C(=O)c2cc(NC(=O)NC3CCCCC3)ccc2O1
-15[16.7 µM]	23	Cc1noc(C)c1NC(=O)N(C)C[C@@H]1Oc2ccc(NS(=O)(=O)c3cn(C)cn3)cc2CC(=O)N([C@@H](C)CO)C[C@@H]1C
-3[16.7 µM]	4	C[C@H](CO)N1C[C@H](C)[C@@H](CN(C)Cc2ccccc2)Oc2ncc(-c3ccccc3F)cc2C1=O
-13[16.7 µM]	-4	C[C@@H]1CCCCO[C@H](CN(C)C(=O)Nc2cccc3ccccc23)[C@@H](C)CN([C@@H](C)CO)C(=O)c2cc(NC(=O)Nc3ccc(F)cc3)ccc2O1
1[16.7 µM]	18	CC(C)CC#Cc1cnc2c(c1)C(=O)N([C@H](C)CO)C[C@@H](C)[C@@H](CN(C)C(=O)Nc1cc(F)ccc1F)O2
-21[16.7 µM]	-8	C[C@@H]1CN([C@@H](C)CO)C(=O)c2cc(-c3ccccc3F)cnc2O[C@@H]1CN(C)Cc1ccccc1F
-11[16.7 µM]	-1	C[C@H]1CN([C@@H](C)CO)C(=O)c2cc(-c3ccccc3)cnc2O[C@@H]1CN(C)C(=O)Nc1ccccc1
-131[16.7 µM]	1	C[C@@H]1CN([C@@H](C)CO)C(=O)c2cc(NS(=O)(=O)c3cccs3)ccc2O[C@@H](C)CCCCO[C@H]1CN(C)C(=O)Nc1ccc(F)cc1
-10[16.7 µM]	2	COc1ccc(CN(C)C[C@@H]2OCCCC[C@@H](C)Oc3ccc(NS(=O)(=O)c4ccc(F)cc4)cc3C(=O)N([C@H](C)CO)C[C@@H]2C)cc1
56*[16.7 µM]	15	CC(C)NC(=O)N(C)C[C@H]1Oc2c(NC(=O)Nc3ccc(C(F)(F)F)cc3)cccc2C(=O)N([C@@H](C)CO)C[C@H]1C
5[16.7 µM]	-8	O=C(C[C@@H]1CC[C@H]2[C@@H](COC[C@@H](O)CN2C(=O)c2ccccc2)O1)Nc1nccs1
-3[16.7 µM]	2	C[C@@H]1CN([C@H](C)CO)C(=O)c2cc(NC(=O)Nc3ccc4c(c3)OCO4)ccc2O[C@@H]1CN(C)S(=O)(=O)c1ccc(Cl)cc1
4[16.7 µM]	5	COc1ccc(S(=O)(=O)N[C@H]2C=C[C@@H](CC(=O)N3CCc4ccccc4C3)O[C@H]2CO)cc1
29[16.7 µM]	6	C[C@@H]1CN([C@H](C)CO)C(=O)c2cccc(NC(=O)NC3CCCCC3)c2O[C@H]1CN(C)Cc1ccccc1
-9[16.7 µM]	8	COc1cccc(S(=O)(=O)N(C)C[C@H]2Oc3cc(C#CCN(C)C)ccc3S(=O)(=O)N([C@@H](C)CO)C[C@H]2C)c1
75*[16.7 µM]	2	Cc1ccc(-c2ccc3c(c2)O[C@@H](CN(C)Cc2cccnc2)[C@H](C)CN([C@H](C)CO)S3(=O)=O)cc1
9[16.7 µM]	2	CCCC(=O)Nc1ccc2c(c1)C(=O)N(C)C[C@H](OC)[C@@H](C)CN(Cc1ccccc1)[C@H](C)CO2
14[16.7 µM]	2	COc1ccc(S(=O)(=O)N(C)C[C@@H]2OCCCC[C@H](C)Oc3ccc(NS(C)(=O)=O)cc3C(=O)N([C@H](C)CO)C[C@@H]2C)cc1
-7[16.7 µM]	-2	C[C@@H]1CCCCO[C@@H](CN(C)C(=O)Nc2ccc(F)cc2)[C@H](C)CN([C@@H](C)CO)C(=O)c2cc(NC(=O)Nc3ccc4c(c3)OCO4)ccc2O1
-21[16.7 µM]	2	C[C@@H]1CN([C@@H](C)CO)C(=O)Cc2cc(NC(=O)CCC(F)(F)F)ccc2O[C@H]1CN(C)C(=O)NC1CCCCC1
-5[16.7 µM]	-2	C[C@@H]1CCCCO[C@H](CN(C)CC2CC2)[C@H](C)CN([C@@H](C)CO)C(=O)c2cc(NC(=O)c3ccncc3)ccc2O1
14[16.7 µM]	11	CCNC(=O)C[C@H]1CC[C@H](NC(=O)C2CC2)[C@@H](CO)O1
-138[16.7 µM]	-6	COc1ccccc1-c1ccc2c(c1)O[C@H](CN(C)C(=O)Nc1ccccc1)[C@H](C)CN([C@H](C)CO)S2(=O)=O
6[16.7 µM]	-5	Cc1ccc(S(=O)(=O)N(C)C[C@H]2OCCCC[C@H](C)Oc3ccc(NS(=O)(=O)c4ccc(Cl)cc4)cc3C(=O)N([C@@H](C)CO)C[C@@H]2C)cc1
-5[16.7 µM]	8	C[C@@H]1CN([C@@H](C)CO)C(=O)c2cc(NC(=O)Nc3ccccc3)ccc2O[C@@H](C)CCCCO[C@@H]1CN(C)C

(cont.)
HIV Env fusion	Yeast UUG start	molecule
0[16.7 µM]	19	COCC(=O)N(C)C[C@@H]1Oc2cc(C#CC3CC3)ccc2S(=O)(=O)N([C@@H](C)CO)C[C@H]1C
4[16.7 µM]	2	C[C@@H]1CN([C@H](C)CO)C(=O)Cc2cc(NC(=O)CCC(F)(F)F)ccc2O[C@H]1CN(C)S(C)(=O)=O
-8[16.7 µM]	1	CCCC(=O)Nc1ccc2c(c1)C(=O)N(C)C[C@@H](OC)[C@H](C)CN(C(C)=O)[C@@H](C)CO2
13[16.7 µM]	3	CCCNC(=O)N(C)C[C@H]1Oc2cc(-c3ccccc3F)ccc2S(=O)(=O)N([C@H](C)CO)C[C@@H]1C
11[16.7 µM]	-18	O=C(C[C@H]1CC[C@@H](NS(=O)(=O)c2ccc(F)cc2)[C@@H](CO)O1)N1CCC(Cc2ccccc2)CC1
-14[16.7 µM]	-8	CC(C)CC#Cc1cnc2c(c1)C(=O)N([C@H](C)CO)C[C@H](C)[C@H](CN(C)Cc1ccccc1F)O2
0[16.7 µM]	11	C[C@H]1CN([C@@H](C)CO)C(=O)c2cccc(NC(=O)Nc3ccc(F)cc3)c2O[C@@H]1CN(C)C(=O)Nc1ccc2c(c1)OCO2
1[16.7 µM]	-9	O=C(NCC[C@@H]1CC[C@@H](NC(=O)c2cccnc2)[C@@H](CO)O1)Nc1ccc(Cl)cc1

An excerpt from above in order of SMILES length, largest number first.
HIV Env fusion	Yeast UUG start	molecule
14[16.7 µM]	7	C[C@@H]1CCCCO[C@H](CN(C)CC2CCCCC2)[C@H](C)CN([C@@H](C)CO)C(=O)c2cc(NC(=O)Nc3ccc4c(c3)OCO4)ccc2O1
20[16.7 µM]	-2	CC(C)NC(=O)Nc1ccc2c(c1)C(=O)N([C@@H](C)CO)C[C@@H](C)[C@@H](CN(C)C(=O)c1ccccc1)OCCCC[C@@H](C)O2
-58[16.7 µM]	11	C[C@@H]1CCCCO[C@H](CN(C)Cc2ccccc2)[C@H](C)CN([C@@H](C)CO)C(=O)c2cc(NC(=O)Nc3ccc(F)cc3)ccc2O1
33[16.7 µM]	9	C[C@@H]1CN([C@H](C)CO)C(=O)c2cc(NC(=O)C3CCCCC3)ccc2O[C@@H](C)CCCCO[C@H]1CN(C)C(=O)Cc1ccccc1
-15[16.7 µM]	23	Cc1noc(C)c1NC(=O)N(C)C[C@@H]1Oc2ccc(NS(=O)(=O)c3cn(C)cn3)cc2CC(=O)N([C@@H](C)CO)C[C@@H]1C
3[16.7 µM]	-8	Cc1ccc(S(=O)(=O)N(C)C[C@H]2Oc3ccc(NC(=O)Nc4ccc(F)cc4)cc3CC(=O)N([C@H](C)CO)C[C@@H]2C)cc1
-9[16.7 µM]	8	COc1cccc(S(=O)(=O)N(C)C[C@H]2Oc3cc(C#CCN(C)C)ccc3S(=O)(=O)N([C@@H](C)CO)C[C@H]2C)c1
9[16.7 µM]	2	CCCC(=O)Nc1ccc2c(c1)C(=O)N(C)C[C@H](OC)[C@@H](C)CN(Cc1ccccc1)[C@H](C)CO2
